Screens deposited in PubChem by Broad Institute.
Tg IFNy HTS – blocks Toxoplasma gondii growth in the presence of IFN-gamma. Toxoplasma gondii growth in IFN-gamma-treated host cells; stronger effect = lower value; reference of the scale not given here. activity change, negative = inhibition, %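 (about 20 µM by stock and volumes)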. hit rate 3.8% among 69,000. AID 1259416;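 active = below -70%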;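 note: host cells are HeLa cells infected with Toxoplasma gondii; parasite growth read as luciferase light; one replicate is shown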
The depositor's hits bear a star; i = inactive; & = joins results of further samples; ! = not active in a repeat. Some of the compounds tested; count on the stated rates, not on these rows.

A first look, 2 compounds:
mol	Tg IFNy HTS
CCN1CCN(c2ncnc3sc(C(=O)NCCc4c[nH]c5ccc(OC)cc45)c(C)c23)CC1	-33
COC[C@@H]1CN(C)C(=O)[C@H]2CCN(Cc3cnn(C)c3)CC[C@H]12	76

All compounds of this part, repeating the preview:
mol	Tg IFNy HTS
CCN1CCN(c2ncnc3sc(C(=O)NCCc4c[nH]c5ccc(OC)cc45)c(C)c23)CC1	-33
COC[C@@H]1CN(C)C(=O)[C@H]2CCN(Cc3cnn(C)c3)CC[C@H]12	76
C[C@@H](O)C#Cc1ccc([C@@H]2[C@@H](CO)N3CCCCN(C(=O)c4ccc5c(c4)OCO5)C[C@@H]23)cc1	2
CCOC(=O)c1nc(Nc2ccc(F)cc2F)c2ccccc2n1	39
O=C(C[C@H]1CC[C@@H](NS(=O)(=O)c2ccc(F)cc2)[C@H](CO)O1)N1CCN(c2ccccc2)CC1	-20
CN(C)C(=O)CNC1CC2(CCN(c3ccccc3)CC2)c2ccccc21 (stereo not drawn)	-25
Nc1ccn([C@H]2C[C@H](O)[C@@H](CO)O2)c(=O)n1	24
Cc1[nH]c2ccccc2c(=O)c1CCC(=O)NCC1(c2ccccc2F)CCOCC1	9
Oc1ccc(OCc2ccccc2)cc1	-33&-12
Cn1cc(N2CCC3(CCN(c4ncccn4)CC3)C2=O)cn1	-3
Cc1nc(-c2ccc(Cl)cc2)sc1CCNC(=O)c1cccc(C(F)(F)F)c1	-41
O=S(=O)(c1ccc2c(c1)OCCO2)N1CCOC(c2nc(-c3cccs3)no2)C1 (stereo not drawn)	9
COc1ccc(C(=O)Nc2ccc(-c3nc(-c4ccc(C)cc4)co3)cc2)cc1OC	15
COCCOc1cc(CNc2ccccc2-c2nnn(C)n2)ccc1OC	6
CN(C)C1CCN(C(=O)c2cc3c(c4ccccc4n3CC3CC3)n2-c2ncccn2)CC1	-60
CN(C(=O)c1ccsc1)C(Cc1ccccc1)C1CCN(C(=O)c2cnn(-c3ccccc3)c2)CC1 (stereo not drawn)	-7
CC(C)n1cnc(C2CN(C(=O)c3ccccn3)c3ccc(C(=O)N4CCC(N(C)C)CC4)cc32)n1 (stereo not drawn)	-10
C[C@@H]1CN([C@@H](C)CO)C(=O)c2cc(NC(=O)Nc3cccc4ccccc34)ccc2O[C@@H](C)CCCCO[C@H]1CN(C)Cc1ccc(C(F)(F)F)cc1	305
CS(=O)(=O)c1ccc([C@@H](CC2CCCC2)C(=O)Nc2nccs2)cc1	5
COc1ccc(C(=O)N2CCOC(CCCc3ccccc3)C2)c(O)c1 (stereo not drawn)	-5
CCCC(=O)Nc1ccc2c(c1)C(=O)N(C)C[C@H](OC)[C@H](C)CN(Cc1ccc(F)cc1)[C@@H](C)CO2	-6
N=C1CCCN1Cc1[nH]c(=O)[nH]c(=O)c1Cl	14
CC(C)(C)C(C)(O)C#CCN1CCOCC1 (stereo not drawn)	12
COc1ccc(NC(=O)OCC23COC4(C)CCC(C)(OC2)N34)cc1 (stereo not drawn)	-21
Cc1nc2n(n1)CCN(C(=O)c1cnn3c1NC(C)CC3C(F)(F)F)C2 (stereo not drawn)	-6
CC(=O)N1CCC(N(CCN2CCOCC2)C(=O)c2cc3cc(C)ccc3o2)CC1	11
O=C(c1ccnn1-c1ccc2ccc(-c3ccc(F)cc3)cn12)N1CCCC(O)C1 (stereo not drawn)	-28
CCS(=O)(=O)N1CC2(C1)[C@H](c1ccccc1)[C@H](CO)N2Cc1ccc(F)cc1	-35
O=C(c1cccc(-n2cccn2)c1)N1Cc2cnn(CCO)c2C1	4
CCC(=O)N1[C@H](CO)[C@H](c2ccccc2)[C@H]1CN(CC1CCC1)S(C)(=O)=O	-13
CCS(=O)(=O)N1CC2(CN(Cc3ccc4c(c3)OCO4)[C@H](CO)c3c2c2ccc(OC)cc2n3C)C1	-60
COc1ccc(-c2nc(Cn3nnc(-c4nc(-c5cccc(F)c5)no4)c3C)c(C)o2)cc1	4
CCOC(=O)c1noc2nc(C)n(Cc3nc(-c4cccc(Br)c4)oc3C)c(=O)c12	44
Cc1cccc(-c2nc(Cn3nnc(-c4nc(-c5ccccc5Br)no4)c3C)c(C)o2)c1	4
COc1ccc(-c2nc(Cn3ccn4nc(-c5ccccc5)cc4c3=O)c(C)o2)cc1	-29
O=C(CC(C(=O)O)C1CCCO1)NC1CCCCC1 (stereo not drawn)	3
COc1ccc(-c2nc(C)c(CCNC(=O)C(=O)Nc3ccccc3C)s2)cc1OC	-76*
CC(C)c1nc(CCNC(=O)c2ccc3cc[nH]c3c2)cs1	-35
Nc1nn(-c2ccc(Cl)cc2)nc1C(=O)c1ccccc1	-12
CSc1cccc(NC(=O)NCC(c2cccnc2)c2cn(C)c3ccccc23)c1 (stereo not drawn)	240
Cc1ccc(CCNC(=O)c2nc(N3CCOCC3)c3ccccc3n2)cc1	-84*
C/C=C/c1ccc(C2[C@H]3CNC[C@@H]2N3C(=O)NC2CCCCC2)cc1 (stereo partly drawn)	-76*!
Cc1ccc2c(c1)NC1(CCN(C(=O)Nc3cccc(C)c3C)CC1)c1cccn1-2	96
CCN1c2cc(C)ccc2-n2cccc2C12CCN(S(=O)(=O)c1ccc(C(C)(C)C)cc1)CC2	9
COc1ccccc1NC(=O)N1CCC2(CC1)Nc1cc(F)ccc1-n1cccc12	428
Cc1ccc(C)c(-c2coc(-c3ccc(NC(=O)c4cccs4)cc3)n2)c1	26
CN(C)C(=O)NC[C@@]12COC[C@@H]1CN(Cc1ccc3c(c1)OCO3)C2	4
COCCN(Cc1ccccc1F)Cc1cccc2c1OCO2	52
CN1CCc2nc(C(=O)N[C@H]3C[C@H](C(=O)N(C)C)CC[C@@H]3NC(=O)C(=O)Nc3ccc(Cl)cn3)sc2C1	12
CC(C)N1CCc2c(nc(C(=O)N3CCCC3)n2C)C1	21

The list goes on:
mol	Tg IFNy HTS
Cc1ccccc1NC(=O)N1CCC2(CC1)Nc1ccccc1-n1cccc12	71
Cc1nc(CN2Cc3ccnn3CC(C(=O)N(C)C)C2)cs1 (stereo not drawn)	-2
CSc1cccc(CN(C)C(=O)c2ccc(CO)o2)c1	-2
Cn1c2c(ccc1=O)CCN(Cc1nccs1)CC2	8
Cc1ccc(-c2ccc([C@H]3[C@H]4CN(C(=O)NC(C)C)CC(=O)N4[C@H]3CO)cc2)cc1	-42
Cc1nc(-c2ccc(Cl)cc2)sc1CCNC(=O)c1cccc(F)c1	-65
COc1ccc(-n2c(=O)c(C(=O)Nc3cccc(C)c3C)c(O)c3cccnc32)cc1	79
CS(=O)(=O)N1CCn2cc(CN3CCCC3)nc2C1	11
COc1c(F)cccc1C(=O)NC(C)c1n[nH]c(C)n1 (stereo not drawn)	-5
O=C(Nc1cc(C(F)(F)F)ccc1Cl)C(=S)NC1CCCCC1	-19

Arranged by SMILES length (falling): 6 of the compounds above.
mol	Tg IFNy HTS
C[C@@H]1CN([C@@H](C)CO)C(=O)c2cc(NC(=O)Nc3cccc4ccccc34)ccc2O[C@@H](C)CCCCO[C@H]1CN(C)Cc1ccc(C(F)(F)F)cc1	305
C[C@@H](O)C#Cc1ccc([C@@H]2[C@@H](CO)N3CCCCN(C(=O)c4ccc5c(c4)OCO5)C[C@@H]23)cc1	2
CN(C(=O)c1ccsc1)C(Cc1ccccc1)C1CCN(C(=O)c2cnn(-c3ccccc3)c2)CC1 (stereo not drawn)	-7
CN(C)C(=O)NC[C@@]12COC[C@@H]1CN(Cc1ccc3c(c1)OCO3)C2	4
Cc1ccc(CCNC(=O)c2nc(N3CCOCC3)c3ccccc3n2)cc1	-84*
Cn1cc(N2CCC3(CCN(c4ncccn4)CC3)C2=O)cn1	-3

(cont.)
mol	Tg IFNy HTS
CC1CCN(S(=O)(=O)c2ccc3c(c2)CCC(=O)N3CC(=O)N(C)Cc2ccccc2)CC1	-44
CN1CC2(CCCN(Cc3ccsc3)CC2)OC1=O (stereo not drawn)	-12
COc1cc(OC)cc(-c2noc(-c3nnn(Cc4nc(-c5cccc(C)c5)oc4C)c3C)n2)c1	3
CC(C)N1CCNC(=O)C1CC(=O)N(C)Cc1ccccc1CN1CCCC1 (stereo not drawn)	-1
COc1ccc(NC(=O)c2ccco2)cc1NC(=O)c1sc2ccccc2c1Cl	-7
COCCn1c(C(=O)NCCCN(C)C)cc2c1c1ccccc1n2C	-13
O=C(Nc1ccccc1)N1C[C@@H]2C[C@H](C(=O)N3CCOCC3)[C@@H](C1)O2	8
COc1ccc(C(=O)N2CCC3(CC2)OC(C(N)=O)Cn2ccnc23)cc1 (stereo not drawn)	0
CCCN1CCc2ncnc(C3CC3)c2CC1	40
CCc1ccn2cc(Nc3ccccc3Cl)nc2c1	223
CC(CN1CCOCC1)NC(=O)CCc1nc2cc(Cl)ccc2n1C (stereo not drawn)	7
COC(=O)c1c(NCc2ccccc2F)c2cccc(Cl)c2[nH]c1=O	-38
CCS(=O)(=O)N1C[C@H](C(=O)N2CCCO2)C[C@@H]2OCC[C@@H]21	3
Oc1ccc(COCc2ccccc2)c2cccnc12	-96*
CC(C)(c1ccc(OC(=O)c2ccco2)cc1)c1ccc(OC(=O)c2ccco2)cc1	-35
CCCc1cncnc1N1CCN(C2CCN(C(=O)C(C)C)CC2)CC1	2
Cc1cnn(Cc2nc(-c3ccc(NC(=O)CC4CCCC4)cc3)oc2C)c1	-15
Cc1cccn2c(CC(=O)N3CCCC4(CNC(=O)O4)C3)cnc12 (stereo not drawn)	-3
COc1ccc(-c2nc(C)c(CCNC(=O)c3ccc(F)c(F)c3)s2)cc1	397
O=C(c1cccc(-c2ncc[nH]2)c1)N1Cc2cnn(CCO)c2C1	104
COc1ccccc1CCNS(=O)(=O)c1cc2c3c(c1)CCC(=O)N3CCC2	26
CN(C(=O)c1nc(C2CC2)nn1-c1ccc2c(c1)OCCO2)c1ccccc1	-9
CN1CC(=O)N(c2ccccc2)CC12CCN(C(=O)C1CCOCC1)C2 (stereo not drawn)	-25
CCCNC(=O)N1CC2(CN(C(=O)CN(C)C)C2)c2c(n(C)c3cc(OC)ccc23)[C@H]1CO	3
CN(C)Cc1cncc2c1CCN(C(=O)c1ccc3c(c1)OCO3)C2	-5
S=C(Nc1cccc(Cl)c1)N1CCCN(c2nc3ccc(Cl)cc3s2)CC1	-39
CCOc1cccc(CN2CCN(c3ncnc4c(C)csc34)CC2)c1O	3
CCO[C@H]1COC[C@@H]1NC(=O)c1cc(-c2ccccc2Cl)oc1C	3
COc1ccc(CNc2ccc3c(c2)ncn3C)cc1OC	9
O=C(Cn1nnc2ccccc21)NC1CCCCC1	17
CC(=O)N1CC2(CCN(C(=O)c3ccc4cc[nH]c4c3)CC2)CC1C(=O)O (stereo not drawn)	1
O=C(COc1ccc(F)cc1)OCCN1CCOCC1	13
CCOc1ccccc1-c1nc(Cc2nc(-c3ccc(OC)cc3)oc2C)no1	-93*
COCCNC(=S)N1CCC(NC(=O)C23CC4CC(CC(C4)C2)C3)CC1	-32
CC(C)Cc1ncc2c(n1)CN(C(=O)CCc1nc(Cl)n[nH]1)C2	9
COc1ccc(CNCc2cccc3ccccc23)cc1	23
CCn1c(C2CCCN(C(=O)c3cccnn3)C2)nn(CCN(C)C)c1=O (stereo not drawn)	1
CCOC(=O)CC1(NC(=O)N2CCC3(CC2)c2cccn2-c2ccc(C)cc2N3CC)CCCCC1	397
CCOCC1c2c(cnn2CC2CC2)CCN1Cc1nccs1 (stereo not drawn)	-16
Cc1ccc2c(c1)CN(C(=O)c1ccc(Cn3nc(C)cc3C)cc1)CC(C)O2 (stereo not drawn)	2
Cc1noc(C)c1NC(=O)Nc1ccc2c(c1)C(=O)N([C@H](C)CO)C[C@@H](C)[C@H](CN(C)Cc1ccc3c(c1)OCO3)OCCCC[C@H](C)O2	64
O=c1cc(-n2ccc(C(F)(F)F)n2)oc2ccccc12	81
CNC[C@@H]1OCc2cnnn2CCCC(=O)N([C@H](C)CO)C[C@@H]1C	105
COc1ccc(N2CCN(C(=O)c3csc(-c4ccc(N5CCCC5)nc4)n3)CC2)cc1	23
O=C1C(Cc2ccccc2)NC(=S)N1c1ccccc1 (stereo not drawn)	-19
N#Cc1cccc(CN2CCC3(CC(NS(=O)(=O)C4CC4)C3)C2)c1 (stereo not drawn)	-2
COc1ccc(-c2ccc([C@H]3[C@@H](C#N)N(C(=O)NC(C)C)[C@@H]3CO)cc2)cc1	-1
CC(=O)NNC(=O)N1Cc2ccccc2Oc2ccc(Cl)cc21	3
Cc1ccc(-c2ccc(-c3ccn[nH]3)cc2)c(N)n1	-81*
Cc1cc2c(cc1NC(=O)c1nnn(-c3ccccc3F)c1C)n(C)c(=O)n2C	14

Further structures
mol	Tg IFNy HTS
CSc1sc(NC(=O)Nc2cccc(C(F)(F)F)c2)cc1C#N	-2
CO[C@@H]1CCN(C(=O)c2cnc(C)cn2)[C@H]1Cc1ccccc1	74
Cn1ccnc1SCCn1ccnc1-c1ccncc1	-43
Cc1ccc2c(c1)c(=O)c1c3n2CCN(C(=O)CCl)C3CC1 (stereo not drawn)	8
CCN(CC)C(=O)c1ccc2nc(NC(=O)c3cn4cccc(C)c4n3)sc2c1	-26
Cc1ccc(NC(=O)NCC(c2cccnc2)c2cn(C)c3ccccc23)cc1 (stereo not drawn)	i
CN(C)C1CCN(C(=O)C2=NOC3(CCN(Cc4ccccc4)C3)C2)CC1 (stereo not drawn)	-66
Cc1cccc(CNc2nc(-c3nnc(-c4ccccc4)o3)nc3ccccc23)c1	-85*
COC(=O)c1cc2n(n1)CCCN(C(=O)c1cc(=O)c3ccccc3o1)C2	26
CC(=O)O[C@H]1C[C@@H]2CC[C@@H]3[C@H](CC[C@@]4(C)[C@H]3C[C@H]([N+]3(C)CCCCC3)[C@@H]4OC(C)=O)[C@@]2(C)C[C@@H]1[N+]1(C)CCCCC1	17
